# Bioassay records deposited in PubChem by National Center for Advancing Translational Sciences (NCATS).
# Sfp inh = Sfp phosphopantetheinyl transferase inhibition. Biochemical Sfp PPTase activity, qHTS. Potency, µM, for the others: max response, negative = inhibition, usual class: inhibitors. 310,000 compounds, 3.5% hits; active means well fitted inhibition curve with a large enough effect; inconclusive means small, poorly fitted or top-dose-only effect, or another doubt; inactive means no such curve, though single readings can be large or run the other way;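 further: the enzyme is Sfp with the accession as filed and its product quenches rhodamine fluorescence; potency means the concentration at half of the fitted maximal effect; 0% = enzyme reaction without inhibitor and -100% = no enzyme wells; top concentration of the series not given in the record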
#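 Buffer: 50 mM Hepes-Na pH 7.6, 10 mM MgCl2, 0.01% Nonidet P-40, 0.01% BSA. Enzyme 15 nM, pre-exposed to compound 15 min; substrates then added and fluorescence change tracked over 30 min.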
# D2 ag = human D2 receptor agonism in beta-arrestin assay; P14416; DiscoveRx PathHunter D2 beta-arrestin, luminescence, 90 min; 100% = 57 uM dopamine signal; activation, % (concentration not given with the values); 360,000 compounds, 0.084% hits; in the data active = activation above about 40%; inconclusive = about 15% to 40%; inactive = below about 15%; further: the text of the record calls up to 30% inactive
#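 Agonist mode: compounds alone added to overnight-plated D2 PathHunter cells for 90 min at 37 C, with 57 uM final dopamine (EC100) defining full response. Beta-arrestin recruitment detected by chemiluminescent reagent, read after 1 h at ambient temperature.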
# D2 potentiator = human D2 receptor positive allosteric modulation. DiscoveRx D2 beta-arrestin cells, luminescence, 90 min; 100% = 57 uM dopamine signal. potentiation, % (concentration not given with the values). 360,000 compounds, 0.23% hits; active = potentiation of 50% or more; inconclusive = 30% to 50%; inactive = 30% or less;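 further: tested on top of an EC20 dose of dopamine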
#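 PathHunter D2 cells, attached overnight at 37 deg C, received compound in DMSO plus dopamine at EC20 (50 nM final) for 90 min at 37 deg C. Beta-arrestin recruitment was read as luminescence after 1 h with detection reagent at ambient temperature.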
# PINK1 expr mod = PINK1 expression modulation; PINK1 immunofluorescence, high-content cytometry, 24 h; Potency, µM (highest dose often 76.6 µM), without a hit: at the top dose activation (PINK1 increase), actives largely listed as activators; 410,000 compounds, 0.2% hits; AID 624263; active = well fitted activation curve with a large enough effect; inconclusive = small, poorly fitted or top-dose-only effect; inactive = flat fitted curve, though single readings scatter; cell line not stated here;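 further: potency means the concentration at half of the fitted maximal effect; % of control where 0% means no effect; nearly all actives have a fitted effect of over 65% in size; a mitochondrial uncoupler was the plate control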
#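 A stable cell line was treated with compounds at 5 concentrations for 24 hours, with CCCP as control. PINK1 levels and mitochondrial localization were measured by immunofluorescence with mitochondrial, cell and nuclear markers after fixation, read by laser-scanning cytometry.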
# TRPV1 PAM = enhances activation of the human vanilloid receptor TRPV1. potentiation, % at 8.33 µM. TRPV1-expressing cells, Fluo-8 calcium influx, capsaicin EC20 potentiation; host cell line not named in the record; control for the full effect not named in the record. AID 540277. Q8NER1. 320,000 compounds, 0.02% hits; active means potentiation above 80%; inconclusive means 30% to 80%; inactive means below 30%; further: 0% is about no effect
# Target sequence (Q8NER1 whole entry, looked up): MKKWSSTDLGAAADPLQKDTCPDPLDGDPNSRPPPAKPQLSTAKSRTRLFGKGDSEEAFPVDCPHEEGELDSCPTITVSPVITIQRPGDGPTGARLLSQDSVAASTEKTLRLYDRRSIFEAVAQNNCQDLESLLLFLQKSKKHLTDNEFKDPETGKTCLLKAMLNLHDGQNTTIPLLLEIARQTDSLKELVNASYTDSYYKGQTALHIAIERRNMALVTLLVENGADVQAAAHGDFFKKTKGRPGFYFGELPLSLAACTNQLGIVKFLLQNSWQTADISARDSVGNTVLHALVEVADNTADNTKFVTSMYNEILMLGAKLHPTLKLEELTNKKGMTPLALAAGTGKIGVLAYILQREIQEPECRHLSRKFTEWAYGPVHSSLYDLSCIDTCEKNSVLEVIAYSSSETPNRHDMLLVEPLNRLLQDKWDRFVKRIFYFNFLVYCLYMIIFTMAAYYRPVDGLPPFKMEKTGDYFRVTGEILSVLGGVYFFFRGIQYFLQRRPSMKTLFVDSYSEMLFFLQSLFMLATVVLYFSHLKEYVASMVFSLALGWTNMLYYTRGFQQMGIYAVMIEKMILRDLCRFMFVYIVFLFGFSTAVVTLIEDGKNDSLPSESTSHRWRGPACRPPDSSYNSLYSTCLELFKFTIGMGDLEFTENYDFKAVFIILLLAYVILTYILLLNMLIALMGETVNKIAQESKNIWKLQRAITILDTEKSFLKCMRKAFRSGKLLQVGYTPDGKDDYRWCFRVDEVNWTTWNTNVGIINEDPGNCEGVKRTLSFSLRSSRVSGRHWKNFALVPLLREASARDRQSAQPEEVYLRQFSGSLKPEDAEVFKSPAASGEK
#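 TRPV1-expressing cells were cultured overnight at 35.5C and loaded with Fluo-8 calcium dye for 40 to 90 min at room temperature. After a 10 s baseline, compound was added and calcium influx was read kinetically for 3 min (ex 480/em 520 nm).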
# CtBP-E1A inh = inhibitors of CtBP/E1A interaction | AlphaScreen GST-E1A/His-CtBP binding, 1536-well; stronger effect = lower value; control for the full effect not named in the record | activity change, % (concentration not given with the values) | 340,000 compounds, 0.49% hits; in the data active means activity change below about -65%; inconclusive means about -30% to -65%; inactive means above about -30%; further: on the % scale 0 is the no-effect control and ±100 the full control effect
#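 Homogeneous bead-based format: GST-tagged E1A captured on glutathione donor beads, His-tagged CtBP on nickel acceptor beads; compounds precede bead addition by 2 h at 37 °C.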
# Six1-Eya2 blk = Six1/Eya2 interaction inhibition; Q15475+O00167; 360,000 compounds, 0.56% hits; activity change, % (test concentration not listed); AID 651725; AlphaScreen GST-Six1/His-Eya2 binding, biochemical; stronger effect = lower value; control for the full effect not named in the record; in the data active = activity change below about -65%; inconclusive = about -30% to -65%; inactive = above about -30%; further: on the % scale 0 is the no-effect control and ±100 the full control effect
#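 AlphaScreen with GST-Six1 and His-Eya2 (5X mix: 250 nM and 500 nM), glutathione donor and nickel acceptor beads; buffer 50 mM Tris pH 8.0, 300 mM NaCl, 1 mM TCEP; 1 h at 37 C in the dark.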
# An asterisk follows results filed as active; ? = inconclusive; . = no result given; [ ] = remark or other dose. Outcome played no part in choosing rows. Share with any hit: about 3.7%.
SMILES,Sfp inh,D2 ag,D2 potentiator,PINK1 expr mod,TRPV1 PAM,CtBP-E1A inh,Six1-Eya2 blk
CCCNC(=O)CNC(=S)N(Cc1cc(OC)c(OC)c(OC)c1)C1CCCC1,12%,-0.5,-17,-0.2%,-8,-3,7
Cc1c(C(=O)N2CCN(S(C)(=O)=O)CC2)oc2ccccc12,13%,-1.6,-5,-3.1%[38.3 µM],-2,-3,0
CN(C)C(=O)c1ccc(NC(=O)CSc2nnc(-c3cccs3)n2N)cc1,.,5.6,-1,1.8%,-3,8,0
OCCN1CCN(c2ncnc3c2ncn3[C@H]2CN(Cc3cccnc3)C[C@@H](CO)O2)CC1,.,-5.2,-8,1.5%,.,4,-1
CC(C)c1ccc(N2C(=O)C3C4C=CC(CC4)C3C2=O)cc1 (stereo unspecified),21%,-1.1,-16,6.2%,4,.,8
CC1(C)CC(=O)C=C(c2ccc(OC(F)(F)F)cc2)C1,.,-6.9,-5,2.4%,-19,-7,-6
O=C(Nc1cccc(-c2ccc(F)cc2)c1)C1CCCN(C(=O)c2cscn2)C1 (stereo unspecified),8%,4.0,-4,0.3%,-9,.,-1
C#CCSc1nc(C)cc(C(=O)OCC)c1C#N,6%,-4.8,-10,1.2%,-4,.,10
Clc1ccc2c(SCC3CO3)c3ccccc3nc2c1 (stereo unspecified),.,-1.6,-11,9.3%,.,0,2
Cn1cccc1/C=N/NC(=O)Cn1cnc2ccccc21,-2%,2.6,-6,3.0%,1,-9,-4
Cc1ccccc1C(=O)Nc1cccc(-c2nnc(SCC(=O)O)n2C)c1,1%,1.1,6,0.0%,2,0,-2
COC(=O)c1ccc(CSc2nnnn2-c2ccccc2)o1,?,-2.3,3,1.0%,10,9,5
CCOC(=O)C(Cc1ccc(O)cc1)NC(=O)CNC(=O)C(CC(C)C)NC(=O)OC(C)(C)C (stereo unspecified),14%,0.1,-1,-1.9%,-9,?,1
CCOC(=O)c1cn(C2CC2)c2c(F)c(F)c(F)cc2c1=O,?,-3.5,2,1.4%,2,-13,14
Cc1cc(N2CCN(c3ccc([N+](=O)[O-])c4cccnc34)CC2)c2ccccc2n1,-7%,-0.5,9,?,-6,26,4
Nc1ncc2[nH]c(N)nc2n1,.,0.6,-3,-0.6%,.,1,9
O=C(/C=C/c1ccccc1Cl)NNC(=O)c1ccncc1,.,-0.6,-3,-0.3%,-2,0,1
Cc1ccc(Cl)cc1N1CCN(S(=O)(=O)c2ccc3c(c2)OCCO3)CC1,4%,-3.2,-20,0.5%,-7,2,2
Cc1cc(/C(N)=N/OC(=O)c2cccc(Cl)c2)no1,1%,5.1,13,1.8%,.,15,-8
O=c1[nH]c2ccccc2cc1CN(CC1CCCO1)S(=O)(=O)c1ccc(Cl)cc1 (stereo unspecified),0%,2.7,0,1.6%,4,-8,3
CCCNS(=O)(=O)c1cccn1-c1ncc(C(F)(F)F)cc1Cl,4%,-1.0,-12,1.0%,-2,-3,3
CCC(Oc1ccccc1)C(=O)Nc1ccccc1N1CCCC1 (stereo unspecified),8%,-1.8,-3,?,-7,-12,-10
COc1ccc2nc(Nc3sc4c(c3C(N)=O)CCCC4)sc2c1,45µM*,?,55*,11%,-10,-20,-22
CSc1cccc(-n2ccc(=O)c(C)c2C)c1,10%,3.6,-2,1.1%,6,7,7
N#C/C(=C\c1ccc(OCc2ccc(C(=O)O)cc2)cc1)C(=O)N1CCOCC1,12%,0.2,1,2.6%,-15,-12,-1
Cn1c(CSc2nc3ccccc3n2C)nc2ccccc21,5%,-1.7,-3,-0.6%,-4,-1,-1
Cc1cccc(N2CCN(C(=S)Nc3ccc4nc(N5CCOCC5)cc(C)c4c3)CC2C)c1 (stereo unspecified),13%,-2.0,-3,14%,?,-8,-4
c1ccc(-c2cnnc(-c3ccccn3)n2)cc1,.,1.5,-1,2.9%,.,-76*,-88*
CC(C)(C)c1ccc(C(=O)Nc2ccc([N+](=O)[O-])cn2)cc1,-1%,-2.5,-27,4.5%,10,5,-1
CCOc1cc(-c2nc3ccccc3s2)ccc1O,-11%,1.6,-2,4.2%,-10,-7,-5
CCC(=O)N(Cc1cc(=O)[nH]c2ccccc12)c1ccccc1OC,10%,0.2,2,0.5%,0,-16,16
COc1ccc(OC)c(C(=O)Cn2cnc3ccccc3c2=O)c1,0%,-1.7,-3,0.7%,2,-2,5
O=C(NNC(=O)c1cc(Cl)ccc1[N+](=O)[O-])c1csc(N2CCOCC2)n1,.,1.1,-6,4.9%,1,6,2
COc1cccc(NC(=O)C2CCCCC2)c1,-7%,-1.2,-15,-0.2%,-21,0,4
COc1ccc(NC(=O)c2ccc(S(=O)(=O)N(C)c3ccccc3)cc2)cc1S(=O)(=O)N1CCOCC1,.,0.5,-16,8.7%,.,4,0
N#C/C(=C/c1cccc([N+](=O)[O-])c1)C(=O)Nc1ccccc1O,-4%,-3.5,-14,2.6%,17,-23,-4
COc1ccc2ccccc2c1CNC(C)CCc1ccccc1 (stereo unspecified),-17%,5.0,-23,0.4%,-4,-3,-5
CCOc1cccc(-c2cc(C(=O)N3N=C(C)CC3(O)C(F)F)c3ccccc3n2)c1 (stereo unspecified),8%,1.0,12,11%,1,11,2
CCOc1cc2c(C#N)c(N3CCCC3)nc(N)c2c(N)n1,.,0.8,1,0.5%,.,.,-10
COc1cccc(C2CCCN2Cc2nc(-c3sccc3C)oc2C)c1 (stereo unspecified),5%,-0.5,-16,2.0%,-3,4,-7
O=C(C1=C(O)C(=O)N(CCN2CCOCC2)C1c1ccc(Cl)cc1)c1cc2ccccc2o1 (stereo unspecified),17%,-0.6,-14,1.2%,6,.,2
CCN1CCN(c2nc3c(c(=O)n(C)c(=O)n3C)n2CCSc2ncccn2)CC1,24%,-3.6,-11,0.1%[38.3 µM],0,1,2
CN(C)CCOC(=O)c1ccc2c(c1)S(=O)(=O)c1ccccc1C2=O,-4%,0.5,3,2.4%,-12,-1,3
Cc1cc(C)cc(C(=O)NC2C(=O)N3C(C(=O)O)=C(CSc4nnc(C)s4)CSC23)c1 (stereo unspecified),?,-6.3,-4,1.2%,7,7,-11
CCCCCCCCCCCC1N=C(N)NC(CCCO)=C1C(=O)OC (stereo unspecified),.,-2.3,-27,-6.6%,.,0,14
CC(C)(C)c1ccc(/C=C/C(=O)O)s1,1%,0.5,0,-0.7%,-31,23,19
CCCc1nc(SCC(=O)N2CCN(c3ccccc3)CC2)c2c(=O)n(C)c(=O)n(C)c2n1,5%,-5.3,-8,0.1%,28,2,-3
CN1C(=O)C(CC(=O)NCCc2ccccc2)N(NC(=O)c2ccc(Cl)cc2)C1=S (stereo unspecified),-2%,-5.4,-11,0.0%,-5,-2,7
CCOC(=O)Nc1cccc2ccccc12,-15%,-2.4,-2,-7.4%[38.3 µM],-9,10,10
COc1ccc(Cl)cc1NC(=O)c1cccc([N+](=O)[O-])c1O,.,-2.8,0,22µM*,.,-1,-1
Cc1ccccc1-n1c(SCC(=O)c2cc(C)n(C)c2C)nnc1-c1cccnc1,-14%,-4.6,-9,5.5%,26,-1,-4
CCC(=O)Nc1ncc2c(n1)CC(c1ccco1)CC2=O (stereo unspecified),-30%,-1.6,-5,-1.9%[38.3 µM],0,3,-3
Cc1cc(=O)oc2cc(OC(=O)c3ccco3)ccc12,10%,6.5,-10,-0.2%,0,3,-11
CC(C)(C)c1cc(C(=O)Nc2ccc(F)cc2)n(Cc2ccc(F)cc2)n1,29%,4.4,-7,?,-23,.,11
O=C(c1ccc(Cl)cc1)C1CCN(C(=S)Nc2ccccc2)CC1,.,1.2,-24,-0.9%,.,.,5
COc1ccc(-c2noc(N3CCC(C(=O)N4CCN(c5ccccn5)CC4)CC3)n2)cc1,-4%,2.2,13,1.5%,-10,-7,-1
Nc1ncncc1-c1ccc(Cl)cc1,4%,2.3,1,0.0%,-10,8,14
CC(C)Oc1cccc(C(=O)NC(=S)N2CCN(c3ccc(C(F)(F)F)cc3[N+](=O)[O-])CC2)c1,24%,-11,-5,5.9%,-11,?,?
O=C(Nc1ccccc1C(=O)N1CCOCC1)c1noc2c1CCCC2,2%,-1.9,-1,?,-5,8,-1
CC(C)CNC(=O)CC(=O)N/N=C/c1ccc(Br)cc1,18%,-0.2,-8,-1.4%[38.3 µM],11,-2,0
O=C1CC(NNC(=O)c2ccc(Br)cc2)C(=O)N1 (stereo unspecified),-2%,-2.3,-6,-1.4%,?,0,-2
O=C1CN(C(=O)COc2ccc([N+](=O)[O-])cc2Cl)c2ccccc2N1,.,11,-9,-1.3%,-4,-26,-16
O=C(c1cc(-c2ccncc2)nc2ccccc12)N1CCN(S(=O)(=O)/C=C/c2ccccc2)CC1,11%,-3.7,4,-1.1%,-1,-6,-8
